Rango dissoc inh – prevents RanGTP from dissociating the Rango-importin beta complex. Biochemical FRET Rango-importin beta, RanGTP-induced dissociation. Potency, µM (series often up to 46.1 µM), without a hit: at the top dose activity change, negative = inhibition. hit rate 0.071% among 340,000. AID 540253; active means falling FRET ratio curve, often poorly fitted, with flat reads before Ran was added; inconclusive means other falling curves, or compound fluorescence or quenching; inactive means flat or rising ratio curve;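 also: potency is read from the fitted curve at half-maximal effect; % of control where 0% means no effect; nearly all actives have a fitted effect of over 45% in size; -100% = wells without RanGTP and RCC1; the record marks most hits as doubtful in a second field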
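Two FRET readings bracket the reaction: one 5 min after compound meets Rango–importin beta, another 45 min after RanGTP-RCC1 (0.6 uM Ran, 0.2 uM RCC1, 2 mM GTP) is added. Only the second defines inhibition.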
miR-21 FLuc – raises the signal of a miR-21 reporter | AID 2288 | Potency, µM (titrated, usually from 38.3 µM), without a hit: top-dose reporter change, positive = more light | HeLa miR-21 FLuc reporter, luciferase, 48 h | 340,000 tested, under 10 active; active = well fitted rising curve with a large enough effect; inconclusive = small, poorly fitted or top-dose-only effect; inactive = no such curve, though single readings can be large or run the other way;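 also: % of control where 0% means no effect; miR-21 action dims this reporter so a rising signal means less miR-21 action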
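HeLa cells stably expressing CMV-driven firefly luciferase with a downstream miR-21 binding sequence, endogenously expressing miR-21, were treated with titrations (up to about 40uM final) for 48 hours at 37 degree Celsius. Luciferase luminescence was read after lysis.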
Rango-impB inh – Rango-importin beta binding inhibition | Q14974 | Rango CFP/YFP FRET sensor + importin beta, 45 min | Potency, µM (top dose mostly 92.2 µM), for the others: at the highest dose inhibition of complex formation | hit rate 0.031% among 340,000 | AID 540263; active = rising FRET ratio curve, often small or poorly fitted; inconclusive = mostly compound fluorescence or quenching in the first reads; inactive = flat curves in all reads;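 also: potency is read from the fitted curve at half-maximal effect; 0% = DMSO wells and 100% = buffer wells lacking importin beta; nearly all actives have a fitted effect of over 15% in size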
Target sequence (Q14974 whole entry, looked up): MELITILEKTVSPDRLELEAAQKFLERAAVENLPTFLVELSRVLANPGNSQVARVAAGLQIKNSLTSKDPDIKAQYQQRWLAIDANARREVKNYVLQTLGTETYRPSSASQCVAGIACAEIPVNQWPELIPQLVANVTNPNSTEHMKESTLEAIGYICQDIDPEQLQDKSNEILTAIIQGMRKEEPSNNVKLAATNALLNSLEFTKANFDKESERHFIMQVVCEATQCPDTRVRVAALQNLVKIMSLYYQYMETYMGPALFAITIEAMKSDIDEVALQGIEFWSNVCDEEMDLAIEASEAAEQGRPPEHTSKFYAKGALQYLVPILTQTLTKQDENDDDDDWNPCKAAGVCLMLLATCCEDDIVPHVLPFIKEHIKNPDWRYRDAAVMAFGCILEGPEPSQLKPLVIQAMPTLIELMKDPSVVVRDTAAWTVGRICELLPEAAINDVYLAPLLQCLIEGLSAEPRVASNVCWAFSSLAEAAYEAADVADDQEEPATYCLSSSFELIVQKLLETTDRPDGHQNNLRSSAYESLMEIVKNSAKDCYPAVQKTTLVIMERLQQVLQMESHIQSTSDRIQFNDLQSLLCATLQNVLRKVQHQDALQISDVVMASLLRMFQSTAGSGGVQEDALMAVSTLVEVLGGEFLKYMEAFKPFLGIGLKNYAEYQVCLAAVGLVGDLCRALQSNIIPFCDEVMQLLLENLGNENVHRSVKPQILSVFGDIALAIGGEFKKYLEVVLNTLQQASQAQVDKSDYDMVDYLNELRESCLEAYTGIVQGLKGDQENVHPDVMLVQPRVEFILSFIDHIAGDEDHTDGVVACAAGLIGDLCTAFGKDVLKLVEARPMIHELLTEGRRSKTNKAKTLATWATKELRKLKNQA
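FRET biosensor (snurportin 1 IBB flanked by EYFP and cerulean), 50 nM, with compound 5 min, then 0.125 microM importin beta in PBS, 1 mM DTT, 0.02% Tween-20, 0.1% BSA. CFP/YFP ratio read after 45 min at room temperature; pre-read flags interference.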
GLA inh pH 4.5 – blocks human alpha-galactosidase A at pH 4.5; P06280; purified enzyme, 4-MU-alpha-Gal fluorescence, pH 4.5; activity change, negative = inhibition, % at 105 µM; 230,000 tested, under 10 active; AID 1467; inconclusive = small, poorly fitted or top-dose-only inhibition, or a rising curve; inactive = flat fitted curve, though single readings scatter; no compound was filed as active;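 also: 0% = full activity with enzyme and -100% = basal without enzyme; dose as in the result columns while the protocol names 77 µM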
An asterisk follows results filed as active; ? = inconclusive; . = no result given; & = joins results of further samples; [ ] = remark or other dose.

SMILES	Rango dissoc inh	miR-21 FLuc	Rango-impB inh	GLA inh pH 4.5
CCOC(=O)N1CCN(C(=O)CSc2nc3ccccc3c(=O)n2-c2ccccc2)CC1	-9%	-3%	-0.4%	-6
O=C(NCCc1ccc2c(c1)OCCO2)c1ccc(F)cc1	3%	-16%	?	-3
CCS(=O)(=O)Nc1cccc(C2=NN(S(=O)(=O)c3ccccc3)C(c3ccco3)C2)c1 (centres undefined)	-14%	0%	-6.3%	2
CC(C)(C)C(=O)N(Cc1ccc(Cl)cc1)Cc1cccnc1	-1%	-2%	-2.2%	0
C[C@@H]1CCC(=O)N(CC[C@H](N=[N+]=[N-])c2ccccc2)CC1	-21%	-14%	-2.0%	.
CCN(CC(=O)Nc1ccccc1SC)Cc1nc2ccccc2c(=O)[nH]1	9%	-1%	2.4%	6
Cc1ccc(CSCCNC(=O)CSCc2ccc([N+](=O)[O-])cc2)cc1	18%	5%	0.6%	-7
Cc1ccc(-c2nc(-c3ccccc3)no2)cc1	12%	-43%	-10%	1
COc1ccc(OCc2cn3c(C)cc(C)nc3n2)cc1	6%	-41%	3.0%	4
CCOC(=O)c1cn2nc(SCc3ccccc3)nc2nc1C	-20%	-59%	3.1%	.
c1ccc(-c2nnc(OCC3CCCO3)c3ccccc23)cc1 (centres undefined)	-9%	-11%	4.7%	-1
Cc1c(Cl)cccc1NC(=O)Cn1cc(C(F)(F)F)cc(Cl)c1=O	1%	1%	-3.7%	-17
O=C(CN1CCCC1)Nc1cccc(Cl)c1	13%	1%	1.9%	.
CC(=O)N1c2ccc(S(=O)(=O)N3CCCC(C(=O)NC4CCCC(C)C4C)C3)cc2CC1C (centres undefined)	13%	-2%	-1.0%	.
O=C(CSc1nnc(NC(=O)c2ccco2)s1)Nc1cccc(F)c1	0%	-44%	1.5%	.
O=C(COC(=O)c1ccc(F)cc1F)NCCC1=CCCCC1	1%	.	-0.3%	.
O=C(NCCc1c[nH]c2ccccc12)[C@@H]1C[C@H]1[C@@H](NP(=O)(c1ccccc1)c1ccccc1)c1ccccc1	.	1%	.	7&-2
CCOC(=O)CNC(=O)CSc1ncnc2c1cnn2-c1ccc(C)cc1	9%	0%	-0.3%	0
Cc1ccc(Nc2nc(NCCO)c3ccccc3n2)cc1C	-8%	16%	-1.7%	.
CCOC(=O)c1nnc(-c2cccs2)nc1NC(C)C	12%	0%	-1.0%	-27

Arranged by SMILES length (descending): part of the list above
SMILES	Rango dissoc inh	miR-21 FLuc	Rango-impB inh	GLA inh pH 4.5
CC(=O)N1c2ccc(S(=O)(=O)N3CCCC(C(=O)NC4CCCC(C)C4C)C3)cc2CC1C (centres undefined)	13%	-2%	-1.0%	.
CCOC(=O)CNC(=O)CSc1ncnc2c1cnn2-c1ccc(C)cc1	9%	0%	-0.3%	0
O=C(CSc1nnc(NC(=O)c2ccco2)s1)Nc1cccc(F)c1	0%	-44%	1.5%	.
O=C(COC(=O)c1ccc(F)cc1F)NCCC1=CCCCC1	1%	.	-0.3%	.
O=C(CN1CCCC1)Nc1cccc(Cl)c1	13%	1%	1.9%	.

Further records:
SMILES	Rango dissoc inh	miR-21 FLuc	Rango-impB inh	GLA inh pH 4.5
CC12CC3CC(C)(C1)CC(C(=O)N1CCCC1)(C3)C2	22%	0%	-0.7%	.
CN(C)C(CNc1ncccn1)c1ccccc1 (centres undefined)	-1%	-3%	-2.4%	.
Cc1cc(O)ccc1NC(=O)Cc1cccc2ccccc12	9%	.	-2.8%	.
COc1cc(C(=O)N2CCN(c3ccc([N+](=O)[O-])cc3)CC2)ccc1OCc1c(C)noc1C	4%	-2%	0.1%	-9
Cc1noc(NS(=O)(=O)c2ccc(NC(=O)c3oc4ccc(F)cc4c3C)cc2)c1C	-11%	-45%	2.0%	.
COc1ccc(Cl)cc1C(=O)NNC(=O)c1cccnc1	0%	-15%	-1.0%	-3
Cc1ccc(C(=O)N2CCN(C)CC2)cc1S(=O)(=O)N1CCCCCC1	?	1%	-3.4%	.
Cc1cc(C(=O)N/N=C/c2ccccc2Br)no1	-2%	-29%	-0.1%	9
CN(CC(=O)Nc1c(Cl)cccc1Cl)C(=O)CCC1CCCC1	5%	5%	-1.0%	.
Fc1ccccc1CSCc1nc2ccccc2[nH]1	-1%	-58%	3.8%	-4
CC(C)c1ccc(C(=O)CSc2n[nH]c(-c3ccncc3)n2)cc1	26%	-8%	-0.2%	-7
COCCN1Cc2cccc(C(=O)Nc3ccc(S(=O)(=O)N4CCOCC4)cc3)c2C1=O	-4%	0%	-0.4%	2[21.1 µM]
Cc1cccc(OCC(=O)Nc2cc(C)c(C)cc2O)c1	17%	-34%	-0.9%	5
O=C(COC(=O)CNC(=O)c1cccc(OC(F)F)c1)NCc1ccc2c(c1)OCO2	-11%	.	0.7%	.
Cc1ccc(SCc2c(C(=O)N/N=C/c3ccncc3)nnn2-c2nonc2N)cc1	9%	0%	-1.2%	.
CSc1nc(-c2ccccc2)nc(C(Cl)Cl)n1	-4%	1%	0.0%	3
Cn1ccnc1SCC(=O)c1ccc(C#N)cc1	7%	-12%	-3.4%	.
CCn1nc(CC(=O)O)c2ccccc2c1=O	-3%	-2%	-0.9%	-13
Cc1cc2occ(CC(=O)NCc3cccs3)c2cc1C(C)C	-7%	-4%	-2.8%	-14
CSc1sc2ccccc2[n+]1CCCS(=O)(=O)[O-]	10%	-1%	-2.3%	2
O=C(O)c1cc(S(=O)(=O)NCC2COc3ccccc3O2)ccc1Cl (centres undefined)	-6%	.	0.4%	.
CC(C)(C)n1nc2c(c1NC(=O)COc1ccc(Cl)cc1)CSC2	14%	8%	2.4%	-1
O=C(N/C(=C\c1cccs1)C(=O)N1CCOCC1)c1ccco1	-6%	-1%	-0.4%	12
C/C=C\C(=O)Nc1cccc(C2=NOC3(C2)C[C@@H](C(N)=O)N(C(=O)CC(c2ccccc2)c2ccccc2)C3)c1 (some centres undefined)	?	26%	0.5%	-15
Cn1c2ccccc2c2c(C(=O)NCCCN3CCCC3=O)cn(C3CCCCC3)c(=O)c21	0%	-2%	-1.1%	7
CCN(CC)c1nc(Nc2ccc([N+](=O)[O-])cc2)nc(N(CC)CC)n1	12%	2%	1.2%	.
O=C(COc1ccc(Cl)cc1)Nc1nnc(S(=O)(=O)N2CCCCCC2)s1	19%	0%&-1%	-1.0%	.
COC(=O)c1ccccc1C(=O)N1CC(O)CO1 (centres undefined)	0%	-4%	5.6%	.
CC1CC(C)CN(C(=O)C(C)N(C)CC(=O)Nc2ccccc2Cl)C1 (centres undefined)	17%	-2%	-1.1%	4
O=C(CCn1nc(-c2ccc(Cl)cc2)ccc1=O)N1CCOCC1	-4%	-2%	0.0%	11
COc1ccc(N(C(C)=O)S(=O)(=O)c2cccc3cccnc23)cc1	-2%	-9%	-3.0%	4
CCOC(=O)C1CCN(C(=O)CCC2CCCC2)CC1	24%	-7%	-1.3%	.
Cc1ccc2[nH]cc(C(=O)CN3CCN(C)CC3)c2c1	-4%	-4%	-4.2%	-14
COc1ccc(Nc2nc(N)nc(CSc3nncn3C)n2)cc1	13%	-17%	?	2
Cc1ccc(C(=O)CSc2nc(C)cc(C)c2C(N)=O)cc1	1%	-21%	-0.6%	1
COc1cc(Nc2ccccc2Cl)c([N+](=O)[O-])nc1[N+](=O)[O-]	5%	24%	-2.5%	0
CN1CCN(S(=O)(=O)c2ccc3[nH]c(=O)oc3c2)CC1	-3%	-9%	0.6%	6
Cc1nc2c(sc(=S)n2Cc2ccco2)c(=O)n1CC(=O)Nc1ccccc1F	3%	-1%	-1.7%	.
CC(=O)c1cccc(CN2CCC(n3nccc3NC(=O)c3ccc4c(c3)OCO4)CC2)c1	-6%	-5%	-1.4%	.
Cn1c(CCCCCN)nc2ccccc21	1%	-1%	-4.6%	-6
CCOC(=O)c1cc(NC(=O)Nc2ccc(OC)c(OC)c2)c(C)nc1C	-4%	-6%	-5.1%	-2
COC(=O)c1ccccc1NC(=O)CCC(=O)N1CCSc2ccccc21	6%	0%	1.4%	.
O=C(CSc1ncc(-c2ccccc2)[nH]1)Nc1cccc(O)c1	-1%	-11%	-2.4%	-15
CCOc1ccc2oc(C(=O)OCC(=O)NC3CCCCC3)c(C)c2c1	11%	.	-0.6%	.
O=C(NNS(=O)(=O)c1ccc(Br)cc1)C1CCCCC1	-8%	-4%	-0.3%	1
CCOC(=O)c1ccc(S(=O)(=O)N2CCN(CC3CC=CCC3)CC2)cc1 (centres undefined)	39%	0%	4.5%	3
CC(C)(C)n1ncc2c(=O)n(CC(=O)c3ccc(Cl)cc3)cnc21	-2%	-46%	6.2%	-5
CCCCNc1nc2ccccc2n1CC(=O)Nc1ccc2c(c1)OCCO2	-22%	-8%	-0.5%	2
COc1nc(Nc2ccc(-c3nc4ccccc4o3)cc2)nc(N2CCOCC2)n1	0%	.	-2.6%	.
COC(=O)c1ccccc1-n1c(C)nc(=O)c(-c2ccccc2)c1C	14%	1%	0.1%	.

Remaining list, next part
SMILES	Rango dissoc inh	miR-21 FLuc	Rango-impB inh	GLA inh pH 4.5
COCOc1ccc(C=O)cc1OCOC	5%	.	-1.4%	.
Cc1ccc(S(=O)(=O)CCC(=O)Nc2ccccc2Cl)cc1	1%	5%	-1.6%	.
COc1ccc(N(CC(=O)N2CCN(c3cccc(C)c3C)CC2)S(=O)(=O)c2c(C)noc2C)cc1	?	21%&25%	-1.6%	.
O=C(COC(=O)CCCNC(=O)c1ccc(Cl)cc1)Nc1ccc(Br)cc1	-8%	-4%	-0.6%	5
CNC(=O)CSc1nccn1Cc1ccc(Cl)cc1	1%	0%	0.1%	-10
CC12CC3CC(C)(C1)CC(Nc1nc(N4CCOCC4)nc4ccccc14)(C3)C2	2%	-1%	2.9%	-4
COc1cccc(OC)c1OCCOCCN1CCN(C)CC1	21%	0%	-1.4%	.
CCC(=O)Oc1ccc(-c2nc(-c3cccnc3)no2)cc1	-20%	?	0.4%	1
CS(=O)(=O)Cc1ccc(C(=O)NC2CCN(Cc3ccccc3)C2)cc1 (centres undefined)	-12%	-2%	3.5%	.
Fc1ccccc1C1c2cccn2CCN1C(=S)Nc1ccc(Br)cc1 (centres undefined)	4%	10%	?	-7
Cc1ccc(CNC(=O)CS(=O)Cc2nc(-c3ccccc3F)oc2C)cc1 (centres undefined)	-9%	-3%	-0.3%	.
COc1ccc2cc3cc(C(=O)NCc4ccccn4)oc3nc2c1	-2%	-12%	-2.8%	?
COCCCNC(=O)CNC(=S)N(Cc1ccc(F)cc1)C1CCCCC1	7%	-5%	10%	1
CC(=O)Nc1ccc(NC(=O)CN(c2cccc(C(C)=O)c2)S(C)(=O)=O)cc1	-13%	9%	-0.7%	4
CCc1nnc(NC(=O)c2ccc(S(=O)(=O)N(CCOC)CCOC)cc2)s1	-4%	-21%	-3.3%	-2
O=C(CSc1n[nH]c(-c2ccc(Cl)cc2Cl)n1)Nc1ccccn1	-3%	-1%	3.6%	4
O=[N+]([O-])c1cc([N+](=O)[O-])c2nonc2c1Nc1ccccc1O	?	-7%	?	.
COC(=O)CSc1nnc(-c2ccc3c(c2)OCO3)n1C	2%	-4%	3.4%	-6
Cc1cc(C)nc(Nc2ncn[nH]2)n1	.	0%	.	4
Cc1ccc2oc(-c3cccc(NC(=O)c4ccccn4)c3)nc2c1	-12%	.	0.0%	.
COc1ccc(C2=CC(=O)N(Nc3ccccc3)C2=O)cc1	?	18%	?	2
COc1ccc(NC(=O)COc2ccc3c(c2)CCC3)cc1	-2%	-18%	-0.6%	-5
CCOC(=O)N1CCN(C(=O)C2CCN(S(=O)(=O)c3cc(OC)ccc3OC)CC2)CC1	-7%	1%	-2.2%	2
COc1ccc(C(=O)n2nc(-c3ccccc3)nc2N)cc1OC	9%	-6%	0.4%	-3
COc1cccc(/C=C(/C#N)c2nc3ccccc3[nH]2)c1OC(C)C(=O)O (centres undefined)	0%	-41%	2.0%	.
CCc1ccc(NC(=O)[C@@H](NC(=O)[C@@H]2Cc3ccccc3CN2)C(C)CC)cc1 (some centres undefined)	3%	-23%	-0.6%	.
O=C(C1CCN(S(=O)(=O)c2ccc(Cl)cc2)CC1)N1CCN(c2ccccn2)CC1	-3%	.	-0.2%	.

Screening results: PubChem, National Center for Advancing Translational Sciences (NCATS)

A portion of the library (hit frequency here may not be typical).
